Bioassay records: PubChem, National Center for Advancing Translational Sciences (NCATS)
RE007 growth inh: less growth of the S. pombe RE007 Vpr strain; S. pombe RE007 Vpr strain, BacTiter-Glo ATP luminescence, 24 h; control for the full effect not named in the record; Potency, µM (highest dose often 92.2 µM), for inactives: at the top dose activity change, negative = less growth; hit rate 0.21% among 360,000; AID 651644; active = well fitted falling curve with a large enough effect; inconclusive = small, poorly fitted or top-dose-only effect; inactive = no such curve, though single readings can be large or run the other way;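 further: nearly all actives have a fitted effect of over 50% in size; the assay follows cell death caused by Vpr and the record does not say whether a fall means rescue or toxicity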
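Fission yeast RE007 carrying one integrated HIV-1 vpr copy, seeded at OD 0.01 in PMG+AL medium with 23 nL pinned compound. Grown 24 h at 30 degrees; viability read by BacTiter-Glo luminescence after 5 min.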
2A StopGo: FMDV 2A StopGo reporter, luciferase signal; AID 1159524; Potency, µM (titrated, usually from 57.9 µM), for inactives: at the highest dose signal change, negative = less light; hit rate 1.2% among 410,000; human cells with a luciferase reporter of 2A StopGo recoding; control for the full effect not named in the record; active = well fitted falling curve with a large enough effect; inconclusive = small, poorly fitted or top-dose-only effect; inactive = no such curve, though single readings can be large or run the other way; tested in HEK293T cells; further: nearly all actives have a fitted effect of over 45% in size; luciferase light after 4 h
Starred values were filed as active, the others as inactive; ? = inconclusive; [ ] = dose if it differs, or a comment. On the % scale 0 is the no-effect control and ±100 the full control effect; potency means the concentration at half of the fitted maximal effect. An excerpt; the hit share may differ from the screen's.

Structure,RE007 growth inh,2A StopGo
CC(=O)C1=CCC(c2ccccc2)N(S(=O)(=O)c2ccc(C)cc2)C1 (stereo not drawn),9%,-7%
CCOC(=O)CNC(=O)N1C[C@H]2CON(C)[C@H]2C[C@H]1c1ccccc1Br,6%,-3%
CC1(C(=O)NS(=O)(=O)c2cccs2)CCN1C(=O)C1(c2ccccc2)CCCC1 (stereo not drawn),12%,1%
CN(C)C(=O)c1cc2c(c(-c3cccc(C4=CCCCC4)c3)n1)[C@@H](CCO)N(S(=O)C(C)(C)C)C2 (stereo partly drawn),-2%,-7%
O=C(Nc1cccc(Cl)c1)Nc1nnc([C@H]2C[C@H](O)[C@@H](CO)O2)s1,-1%,48%[activator]
Cc1ccccc1-c1cc2nc(NCc3ccccc3)n(C)c(=O)c2s1,7%,-4%
Cn1c(=O)c2cc(NC(=O)CCc3ccc4c(c3)OCO4)ccc2n1Cc1ccc(F)cc1,7%,-29%
O=C1CC[C@@H]2CC3(C[C@@H]4CCN1[C@H]24)Nc1cc(Cl)ccc1NC3=NC1CCCCC1 (stereo partly drawn),-6%,60%[activator]
C[C@H](CO)N1C[C@H](C)[C@@H](CN(C)S(=O)(=O)c2cn(C)cn2)OCc2cn(nn2)CCCC1=O,9%,-16%
CC1(Cc2cc(Cl)ccc2C(F)(F)F)C(=O)Nc2ccc(S(=O)(=O)NC3CCCCC3)cc21 (stereo not drawn),16%,2%
CCCCNC(=O)C[C@@H]1C[C@@]2(C(=O)OC)CCCCC=C2N(CCc2ccc(OC)c(OC)c2)C1=O,-1%,-11%
C[C@@H]1CN([C@@H](C)CO)C(=O)c2cc(NC(=O)Nc3ccccc3)ccc2O[C@@H](C)CCCCO[C@H]1CN(C)C(=O)Nc1ccc(C(F)(F)F)cc1,10%,?
CC1Cc2nc(SCC(=O)NCC3CCCO3)n(-c3ccccc3)c(=O)c2S1 (stereo not drawn),4%,-16%
COC(=O)[C@@]12C[C@@H](CC(=O)NCc3ccc(OC)c(OC)c3)C(=O)N(Cc3ccco3)C1=CCC(C)(C)C2,0%,-13%
CCc1ccc(N2CC(C(=O)N(CC)CC(=O)Nc3c(F)cccc3F)CC2=O)cc1 (stereo not drawn),-14%,-4%
CCCCNC(=O)C[C@@H]1C[C@@]2(C(=O)OC)CC(C)(C)CC=C2N(Cc2ccco2)C1=O,1%,3%
COC(=O)[C@@H]1N=C(c2ccc(OC)cc2)O[C@]12C(=O)N(Cc1ccccc1)c1ccccc12,-30%,-1%
O=C(COC(=O)COc1ccc(Br)cc1)NC1CCS(=O)(=O)C1 (stereo not drawn),12%,-3%
CCc1ccc2c(c1)NC(=O)C2(C)Cc1ccc(F)cc1 (stereo not drawn),-1%[18.4 µM],-21%
C[C@]12C(=O)N(c3ccc(Cl)cc3)C(=O)N1[C@@H]1c3ccccc3OC[C@@H]1[C@H]2c1ccccc1,10%,-18%
O=C(Nc1ccc(Cl)cc1)c1csc([C@@H]2O[C@H](CO)[C@H](O)[C@H](O)[C@H]2O)n1,6%[18.4 µM],-13%
CCCCN(C(=O)c1cccc(N2C(=O)c3ccccc3C2=O)c1)c1c(N)n(CCCC)c(=O)[nH]c1=O,17%,1%
CCCCCCn1c(=O)n2n(c1=O)C[C@]1(OC(=O)Nc3cccs3)CN(S(=O)(=O)c3ccc(C)cc3)C[C@]1(O)C2,4%,0%
Nc1nc(CSc2nnnn2-c2ccccc2)nc(Nc2ccccc2)n1,1%[18.4 µM],-19%
O=C(C=CC(=O)Nc1ccc(F)cc1F)Nc1ccc(F)cc1F,-6%[18.4 µM],-4%
C#CCOCCOCCOCCNc1nc(N2CCOCC2)nc(N2CCN(C(=O)[C@H](CCCCN)n3cc(CCC(=O)O)nn3)CC2)n1,6%,-20%
Oc1ccccc1-c1cnc2cccnn12,2%,15%
N=c1ncn(C2OC(CO)C(O)C2O)c2nc(Br)[nH]c12 (stereo not drawn),5%,0%
COC(=O)C(NC(=O)c1ccccc1)C(C)(C)SCc1ccccc1 (stereo not drawn),-10%,-23%
CCOC(=O)N1CCN(C(=O)C[C@@H]2C[C@@]3(C(=O)OC)CC(C)(C)CC=C3N(Cc3ccco3)C2=O)CC1,-8%,-20%
COc1ccc(C2Nc3ccccc3C(=O)N2Cc2ccccc2)cc1OC (stereo not drawn),11%,-16%
C#CCN(C[C@@H]1[C@@H](OC(=O)NC2CCCC2)[C@@H](OC(=O)NC2CCCC2)Cn2c(=O)ccc(=O)n21)S(=O)(=O)c1ccc(C)cc1,4%,?

Another view of some results above:
Below each compound: RE007 growth inh	2A StopGo
> Nc1nc(CSc2nnnn2-c2ccccc2)nc(Nc2ccccc2)n1
    1%[18.4 µM]	-19%
> O=C(COC(=O)COc1ccc(Br)cc1)NC1CCS(=O)(=O)C1 (stereo not drawn)
    12%	-3%
> CN(C)C(=O)c1cc2c(c(-c3cccc(C4=CCCCC4)c3)n1)[C@@H](CCO)N(S(=O)C(C)(C)C)C2 (stereo partly drawn)
    -2%	-7%
> CC1Cc2nc(SCC(=O)NCC3CCCO3)n(-c3ccccc3)c(=O)c2S1 (stereo not drawn)
    4%	-16%

Continuation:
Structure,RE007 growth inh,2A StopGo
Cn1ccc2c(/C=C/c3ccc(F)cc3)cc3c(c21)C1CCC3O1 (stereo not drawn),-17%,-15%
COc1cc(C(=O)Nc2ccc(C(=O)c3ccncc3)cc2)cc(OC)c1OC,11%,?
OCCc1ccc(NCCc2cccs2)cc1,-14%,0%
COc1cc(OC)cc(C2=Cc3ccc(OC)cc3C(CC(C)=O)N2c2ccc(C#CC3(O)CCCCC3)cc2)c1 (stereo not drawn),10%,-10%
CC(C)c1ccc(NC(=O)N2CCc3nc(NCc4cccc(Oc5ccccc5)c4)ncc3C2)cc1,7%[18.4 µM],-34%
CC1=CC(=O)[C@@H](O)[C@@H](c2ccccc2Br)N1C,-2%,-15%
O=C(OCc1ccccc1)N1C=CCC[C@@H]1c1c(Cl)cccc1Br,6%,-18%
Cc1ccc(CNC(=O)c2[nH]c(C(F)(F)F)nc2-c2ccccc2)cc1,0%,-36%
COc1ccc(N2C(=O)c3ccccc3NC(=O)C2C(=O)Nc2ccc3c(c2)OCCO3)cc1 (stereo not drawn),4%,25%
CCCNC(=O)C1(C)CCCN(C(=O)c2cc(C)nn2C(C)(C)C)C1 (stereo not drawn),10%,-12%
N#CC1(Nc2ccc3c4c(cccc24)CC3)CCCCC1,-10%,-19%
CC(C)NC(=O)Nc1ccc2c(c1)C(=O)N([C@H](C)CO)C[C@H](C)[C@@H](CN(C)S(=O)(=O)c1ccccc1)OCCCC[C@@H](C)O2,-9%,0%
CC(C)C(=O)N1CCC1(C)C(=O)Nc1ccc2[nH]ccc2c1 (stereo not drawn),7%,-19%
CNC(C)C#Cc1ccc2c(=O)c3cc(C)c(C)cc3oc2c1 (stereo not drawn),-27%,0%
CC(=O)Nc1ccc(S(=O)(=O)CC(=O)CS(=O)(=O)c2ccc(NC(C)=O)cc2)cc1,-8%,18%
CC1(C(=O)NS(=O)(=O)Cc2ccccc2)CCN1C(=O)C/C=C/c1ccccc1 (stereo not drawn),8%,1%
CC(C)C1C(=O)N(Cc2cn(CCC3OCCCO3)nn2)CCS(=O)(=O)N1Cc1ccc(-c2cccc(CO)c2)cc1 (stereo not drawn),29%,-18%
O=C(NCc1cccc(C(F)(F)F)c1)C1C(=O)Nc2ccccc2C(=O)N1Cc1ccccc1 (stereo not drawn),4%,27%
C[C@H](CO)N1C[C@H](C)[C@H](CN(C)C(=O)c2cc(-c3ccccc3)on2)OCc2cnnn2CCCC1=O,-6%,-18%
Clc1ccc(-c2nc(CSc3ccccn3)cs2)cc1,-22%,26%
C[C@@H](O)CNC(=O)c1[nH]cnc1C(=O)N[C@H](C)c1ccccc1,16%,-24%
CN(C)C(=O)c1ccc(NC(=O)COC(=O)CCN=C2NS(=O)(=O)c3ccccc32)cc1,-2%,-6%
c1ccc(CNc2ncn[nH]2)cc1,-11%,0%
CCN(CC)C(=O)C(c1ccccc1)S(=O)(=O)N1CCOCC1 (stereo not drawn),-13%,0%
CC1(C(=O)NCc2ccccc2)CN(S(C)(=O)=O)CC(=O)N1CCCN1CCOCC1 (stereo not drawn),0%,-11%
Cc1cc(C(=O)CCC(=O)Nc2ccc(C(N)=O)cc2)c(C)s1,1%,-23%
CCOC1=C2[C@H](c3ccccc3Cl)N(S(=O)(=O)c3ccc(C)cc3)C[C@H]2C(C#N)(C#N)C(C#N)(C#N)C1,3%,?
C[C@@H]1CN([C@@H](C)CO)C(=O)c2cc(Br)cnc2O[C@@H]1CN(C)C(=O)CN(C)C,5%,-20%
O=C(/C=C/c1ccccc1)N1Cc2ccccc2-n2nncc2C1,3%,-1%
O=[N+]([O-])c1cccc(COc2cccc(CN3CCOCC3)c2)c1,-28%,?
Cn1c(=O)c2cc(NC(=O)NCCc3cccs3)ccc2n1C/C=C/c1ccccc1,3%[18.4 µM],-2%
C[C@@H]1CN([C@H](C)CO)C(=O)CCCn2nncc2CO[C@@H]1CN(C)S(=O)(=O)c1ccccc1C#N,-6%,-13%
CN(Cc1ccc(Cl)cc1Cl)C(=O)Cc1ccc(S(=O)(=O)N2CCOCC2)s1,1%,-21%
CC(NC(=O)c1cccc2c1Oc1ccccc1S2)C(=O)O (stereo not drawn),13%,-29%
C[C@H]1CN([C@@H](C)CO)C(=O)c2cc(Br)cnc2O[C@H]1CN(C)C(=O)Cc1ccccn1,0%,-10%
O=C(NCC[C@@H]1CC[C@@H](NC(=O)c2cnccn2)[C@@H](CO)O1)c1ccc2c(c1)OCO2,-8%,-15%
O=C1O[C@@H](c2ccccc2)C[C@@H](O)C(=O)CCCc2ccccc21,5%,-22%
CC(C)C[C@H]1CN([C@@H](Cc2ccccc2)CN2CCC[C@@H]2CN2C(=O)C(=O)NC[C@@H]2Cc2ccccc2)C(=O)C(=O)N1CC1CCCCC1,-7%,?
NC(=O)c1ncn([C@@H]2O[C@H](CNCc3c(OCc4ccccc4F)ccc4ccccc34)[C@@H](O)[C@H]2O)n1,-6%,-8%
O=C(COc1ccc(S(=O)(=O)N2CCCC2)cc1[N+](=O)[O-])N1CCCCC1,-6%,-22%
COC1OC2COC(c3ccccc3)OC2C(O)C1NC(C)=O (stereo not drawn),-4%,-24%
CC(=O)Nc1cccc(Oc2nc(NCC3CC3)nc3ccsc23)c1,-4%,-18%
COc1ccc(-c2cc3nc(-c4ccccc4)cc(N4CCN(C(C)=O)CC4)n3n2)cc1,-13%,?
CC(C)NC(=O)C1Cc2c(-c3ccc(Cl)cc3)ccnc2O1 (stereo not drawn),-1%[18.4 µM],-21%
CC(C)C[C@H]1CNC(=S)N1C[C@H]1CCCN1C[C@H](Cc1ccccc1)N1C[C@H](Cc2ccc(O)cc2)N(CCc2ccccc2)C1=S,-14%,-15%
CNC(=O)C[C@@H]1C(=O)N(c2ccc(Br)cc2)CC1(C)C,18%,4%
CC(=O)c1ccc(OCC(=O)OCC(=O)c2ccc(S(=O)(=O)N3CCCCC3)cc2)cc1,1%,-17%
CCCn1c(=O)c(C(=O)Nc2ccccc2N)c(O)c2ccccc21,3%,-2%
CCCCCn1c(SCC(=O)c2ccccc2)nc2cc(C(=O)NCC3CCCO3)ccc2c1=O (stereo not drawn),14%,-13%
CCCC(=O)N1CCC1(C)C(=O)NS(=O)(=O)c1ccc(F)cc1F (stereo not drawn),-2%,-16%
CCOC(=O)C(=O)N(C)c1c(CC)nc2c(OCc3ccc(OC(F)F)cc3)cccn12,2%,-2%
CCC1(C2C=COC=C2)NC(=O)NC1=O (stereo not drawn),-1%[18.4 µM],-26%
Cc1ccccc1N=C(c1ccccc1)C1C(=O)c2ccccc2C1=O,3%[18.4 µM],-24%
CC(C)c1cc(C(C)C)c(S(=O)(=O)NC(c2ccccn2)C23CC2C3)c(C(C)C)c1 (stereo not drawn),-18%,4%
O=C(Cc1ccc(NC(=O)C2CCN(C(=O)C3CCCCC3)CC2)cc1)Nc1cccc(C(=O)N2CCCCC2)c1,0%,9%
N#CCCN(C(=S)Nc1ccc(Cl)c(Cl)c1)C1CCCCC1,15%,-9%

(listing goes on)
Structure,RE007 growth inh,2A StopGo
CCC(C)C(NC(=O)c1ccccc1)C(=O)N1CCN(C(=O)c2ccccc2)CC1 (stereo not drawn),-10%,-35%
CCOc1ccc(NS(=O)(=O)c2ccc(Cl)c(N=Nc3c(O)[nH]c(=S)[nH]c3=O)c2)cc1Br,1%,10%
CC(C)CCN1CCC(CN2C(=S)NC[C@@H]2Cc2ccccc2)CC1,-21%,-10%
COc1ccc([C@H]2CC(=O)C[C@@H](CCn3cc(-c4ccc(F)cc4)nn3)O2)cc1,-6%,-18%
COc1cccc(-n2cnc3sc(-c4ccccc4)cc3c2=O)c1,19%,69%[activator]
N#CC(=Cc1ccc(-c2ccccc2)cc1)C(=O)c1ccccc1,1%[18.4 µM],-1%
